AF4-AF9 inh – blocks AF4 peptide binding to human AF9; AlphaScreen, biotin-AF4 peptide binding to FLAG-AF9; 0.47% of 350,000 active; inhibition, % at 10 µM;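 active = every replicate reaching a set inhibition limit, whatever the replicate mean, cut at about 25% in these data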;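 note: 0% = plate neutral control median and 100% = total signal loss; the record names both 10 and 1 µM as test concentration; the first replicate is given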
Target sequence (P42568 whole entry, looked up): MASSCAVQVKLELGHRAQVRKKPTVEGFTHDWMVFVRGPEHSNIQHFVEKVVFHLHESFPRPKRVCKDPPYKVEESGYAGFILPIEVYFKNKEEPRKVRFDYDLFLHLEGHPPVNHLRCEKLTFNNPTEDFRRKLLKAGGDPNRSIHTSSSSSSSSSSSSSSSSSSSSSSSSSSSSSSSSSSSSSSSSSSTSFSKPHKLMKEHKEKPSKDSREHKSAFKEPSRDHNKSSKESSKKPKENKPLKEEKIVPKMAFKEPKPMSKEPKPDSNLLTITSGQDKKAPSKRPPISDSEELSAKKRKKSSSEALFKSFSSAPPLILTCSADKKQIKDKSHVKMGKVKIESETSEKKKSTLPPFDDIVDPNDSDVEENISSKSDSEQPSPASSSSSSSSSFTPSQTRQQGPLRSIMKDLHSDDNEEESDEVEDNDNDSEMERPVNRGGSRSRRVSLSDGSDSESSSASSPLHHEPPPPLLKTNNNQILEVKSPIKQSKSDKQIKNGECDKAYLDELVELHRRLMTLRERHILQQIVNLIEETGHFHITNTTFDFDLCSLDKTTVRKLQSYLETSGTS
* = called active by the depositor. This is a subset; count on the stated rates, not on these rows.

AF4-AF9 inh,SMILES
5.6,O=C(NN=Cc1c[nH]c2ccccc12)NN=Cc1c[nH]c2ccccc12
-2.6,Cn1nc(C(C)(C)C)cc1C(=O)NCC1CCN(C(=O)C(=O)c2cc3ccccc3o2)CC1
0.2,CNC(=O)C1Cc2c(-c3ccc4c(c3)OCO4)ccnc2O1 (centres undefined)
-2.7,COc1ccccc1NC(=O)N1CCCCN2[C@H](C1)[C@@H](c1ccc(C#Cc3ccccc3)cc1)[C@@H]2CO
1.5,CC=Cc1ccc2n(c1=O)C[C@@H]1[C@@H](CO)[C@H](C(=O)NCCC)[C@H]2N1Cc1cccnc1 (mixture of isomers)
-2.7,COc1ccc(S(=O)(=O)N(C)C[C@H]2Oc3ccc(NC(=O)c4ccncc4)cc3C(=O)N([C@H](C)CO)C[C@H]2C)cc1
-1.3,Cc1cc(Oc2cccc3c2S(=O)(=O)N(C2CCCC2)CC(COCc2ccccc2)O3)cc(C)c1C (centres undefined)
-1.1,COc1cccc(CN(C)C[C@H]2OCc3cn(nn3)CCCC(=O)N([C@@H](C)CO)C[C@@H]2C)c1
-2.7,CO[C@@H]1CN(C)C(=O)c2ccc(NS(=O)(=O)c3ccc(-c4ccccc4)cc3)cc2OC[C@@H](C)NC[C@@H]1C
-1.6,COc1ccc(NC(=O)Nc2ccc3c(c2)C(=O)N([C@@H](C)CO)C[C@@H](C)[C@H](CN(C)S(=O)(=O)c2cn(C)cn2)O3)cc1
1.0,Cc1ccc(S(=O)(=O)N(C)C[C@H]2OCCCC[C@H](C)Oc3ccc(NS(=O)(=O)c4c(C)noc4C)cc3C(=O)N([C@@H](C)CO)C[C@H]2C)cc1
-3.3,O=C(NCc1ccc(F)cc1)[C@@H]1[C@@H](CO)[C@@H]2Cn3c(cccc3=O)[C@H]1N2C(=O)C1CC1
2.7,NCC[C@@H]1CC[C@H](NC(=O)c2ccccc2F)[C@@H](CO)O1
-3.7,COCC(=O)Nc1ccc2c(c1)[C@@H]1C[C@H](CC(=O)N(C)C)O[C@H](CO)[C@@H]1O2
14,CCOC(=O)[C@]12CCCC=C1N(Cc1ccco1)C(=O)[C@H](CC(=O)NCC13CC4CC(CC(C4)C1)C3)C2
-3.3,CCCCNC(=O)C(NC(=O)c1cccnc1)C(=O)c1ccccc1 (centres undefined)
-0.2,C[C@@H]1CN([C@@H](C)CO)C(=O)c2cc(NS(=O)(=O)c3ccc(F)cc3)ccc2O[C@@H](C)CCCCO[C@H]1CN(C)S(=O)(=O)c1cn(C)cn1
-9.6,CCCC#Cc1ccc([C@@H]2[C@@H](CO)N3CCCCN(Cc4ccncc4)C[C@H]23)cc1
-0.5,O=C(C[C@H]1CC[C@H]2[C@@H](COC[C@@H](O)CN2Cc2cccc(F)c2)O1)NCc1cccc(F)c1
1.5,CC(=O)N1CC2(C1)[C@@H](c1ccc(-c3cccc(F)c3)cc1)[C@@H](CO)N2CC1CCOCC1
-7.1,C[C@H](CO)N1C[C@H](C)[C@@H](CN(C)C)OCCCC[C@H](C)Oc2ccc(NS(=O)(=O)c3ccc(F)cc3)cc2C1=O
-16,COC(=O)[C@@H]1[C@@H](CO)[C@@H]2Cn3c(ccc(-c4cccc(C(=O)N(C)C)c4)c3=O)[C@@H]2N1C
-4.1,N#C[C@@H]1[C@@H](c2ccc(C#Cc3cccc(F)c3)cc2)[C@@H](CO)N1C(=O)C1CC1
-1.0,COc1ccc(C#Cc2ccc([C@H]3[C@H]4CN(C(=O)c5ccncc5)CCCCN4[C@H]3CO)cc2)cc1
-0.2,CN(C)CCN(Cc1ccccc1)C(=O)c1[nH]c(C(F)(F)F)nc1-c1ccccc1
-2.7,C[C@@H](O)C#Cc1ccc([C@H]2[C@H]3CN(C(=O)c4cccc(F)c4)CCCCN3[C@H]2CO)cc1
-8.0,Cc1ccccc1-c1ccccc1[C@@H]1[C@H](C#N)N(C(=O)c2ccccc2)[C@H]1CO
-0.9,O=C(NC1CCCC1)C(C1CC1)n1c(-c2ccncc2)nc2ccccc21 (centres undefined)
-0.4,CC(C)NC(=O)N1[C@H](CO)[C@H](c2ccccc2)C12CN(C(=O)c1ccccn1)C2
-0.4,Cc1ccc(F)cc1C(=O)N1CCCCC1c1cc(C(=O)NCc2ccccc2)no1 (centres undefined)
2.0,COC(=O)C[C@@H]1C[C@@H]2c3cc(NC(=O)C4CCC4)ccc3O[C@@H]2[C@H](CO)O1
-1.8,CCCNC(=O)N1CC(=O)N2[C@H](C1)[C@@H](c1ccc(C#Cc3cccc(F)c3)cc1)[C@@H]2CO
1.7,COc1ccccc1CNC(=O)C[C@@H]1C[C@H]2c3cc(NC(=O)Nc4ccccc4F)ccc3O[C@H]2[C@H](CO)O1
4.6,Cc1ccc(S(=O)(=O)N(C)C[C@@H]2Oc3cc(C#CC4CCCC4)ccc3S(=O)(=O)N([C@H](C)CO)C[C@H]2C)cc1
-3.0,COc1cccc(C#Cc2ccc([C@H]3[C@@H](CO)N4C(=O)CN(C(=O)C5CC5)C[C@@H]34)cc2)c1
0.4,C[C@H](CO)N1C[C@H](C)[C@H](CN(C)Cc2ccncc2)OCCCC[C@H](C)Oc2ccc(N(C)C)cc2C1=O
5.1,C[C@H](CO)N1C[C@H](C)[C@@H](CN(C)Cc2cccnc2)Oc2ncc(C#CCc3ccccc3)cc2C1=O
-0.8,CCC(=O)Nc1ccc2c(c1)OC[C@@H](C)N(Cc1ccncc1)C[C@@H](C)[C@@H](OC)CN(C)C2=O
-1.3,O=C(C[C@H]1CC[C@H]2[C@@H](COC[C@@H](O)CN2C(=O)Nc2cc(Cl)cc(Cl)c2)O1)NCC1CCCCC1
10,C[C@@H]1CN([C@@H](C)CO)C(=O)c2cc(/C=C/c3ccccc3)cnc2O[C@H]1CN(C)S(=O)(=O)c1ccc(F)cc1
-1.6,Cc1cc(C(=O)N2CCC2(C)C(=O)NCCC#N)nn1C (centres undefined)
1.8,CO[C@@H]1CN(C)C(=O)c2ccc(NC(=O)C3CCOCC3)cc2OC[C@@H](C)N(Cc2ccc(F)cc2)C[C@H]1C
-8.5,C[C@@H]1CCCCO[C@H](CN(C)C(=O)C2CCCCC2)[C@@H](C)CN([C@@H](C)CO)C(=O)c2cc(NS(=O)(=O)c3cccs3)ccc2O1
1.1,COc1ccc(-c2ccccc2[C@H]2[C@@H](C#N)N(C(=O)C3CCCC3)[C@H]2CO)cc1
-0.6,CO[C@H]1CN(C)C(=O)c2ccc(NC(=O)Nc3c(C)noc3C)cc2OC[C@H](C)N(CC2CC2)C[C@H]1C
8.1,C[C@H]1CN([C@@H](C)CO)C(=O)Cc2cc(NC(=O)Nc3ccc(C(F)(F)F)cc3)ccc2O[C@H]1CN(C)C(=O)Nc1ccc2c(c1)OCO2
1.3,CCCN1C[C@@H](C)[C@H](OC)CN(C)C(=O)c2cc(NC(=O)Nc3ccccc3F)ccc2OC[C@@H]1C
-4.0,CCCC(=O)Nc1ccc2c(c1)C(=O)N(C)[C@@H]1CC[C@@H](CC(=O)O)O[C@@H]1CO2
-1.2,Cc1ccc(S(=O)(=O)N(C)c2ccc(OCC(=O)Nc3cc(C(=O)O)ccc3Cl)cc2)cc1
3.3,C[C@@H]1CCCCO[C@H](CN(C)Cc2ccncc2)[C@@H](C)CN([C@H](C)CO)C(=O)c2cc(NC(=O)Nc3ccc4c(c3)OCO4)ccc2O1

Further results
AF4-AF9 inh,SMILES
6.3,CCC(=O)N[C@@H]1CC[C@@H](CCNC(=O)Nc2ccc(F)cc2)O[C@H]1CO
0.8,CC(C)C1C(=O)N(Cc2cn(CCC3OCCO3)nn2)CCS(=O)(=O)N1Cc1ccc(-c2ccccc2Cl)cc1 (centres undefined)
-2.5,COCC(=O)Nc1ccc2c(c1)OC[C@H](C)N(C(=O)c1cnccn1)C[C@H](C)[C@@H](OC)CN(C)C2=O
-0.9,Cc1cccc(S(=O)(=O)N[C@@H]2CC[C@H](CCNC(=O)CCN3CCCCC3)O[C@H]2CO)c1
3.5,CCS(=O)(=O)N1CCCCN2[C@H](C1)[C@H](c1ccc(-c3cccc(C#N)c3)cc1)[C@@H]2CO
-1.1,COc1ccc2c3c([nH]c2c1)[C@H](CO)N(C(=O)c1ccccc1)CC31CCN(S(=O)(=O)c2cccs2)CC1
12,O=S(=O)(Cc1ccccc1)N1CCCCN2[C@H](C1)[C@H](c1ccc(-c3cncnc3)cc1)[C@@H]2CO
4.1,Cc1c(C(=O)NCc2ccc(C#N)cc2)sc(=O)n1Cc1ccccn1
-2.1,Cc1noc(C)c1NC(=O)Nc1ccc2c(c1)C(=O)N([C@@H](C)CO)C[C@H](C)[C@@H](CN(C)Cc1ccc(C(=O)O)cc1)O2
-8.5,O=C(C[C@@H]1C[C@H]2c3cc(NC(=O)Nc4ccccc4F)ccc3O[C@H]2[C@H](CO)O1)NC1CCCCC1

7 entries from above, sorted by molar mass, low to high:
AF4-AF9 inh,SMILES
6.3,CCC(=O)N[C@@H]1CC[C@@H](CCNC(=O)Nc2ccc(F)cc2)O[C@H]1CO
3.5,CCS(=O)(=O)N1CCCCN2[C@H](C1)[C@H](c1ccc(-c3cccc(C#N)c3)cc1)[C@@H]2CO
12,O=S(=O)(Cc1ccccc1)N1CCCCN2[C@H](C1)[C@H](c1ccc(-c3cncnc3)cc1)[C@@H]2CO
-8.5,O=C(C[C@@H]1C[C@H]2c3cc(NC(=O)Nc4ccccc4F)ccc3O[C@H]2[C@H](CO)O1)NC1CCCCC1
-2.5,COCC(=O)Nc1ccc2c(c1)OC[C@H](C)N(C(=O)c1cnccn1)C[C@H](C)[C@@H](OC)CN(C)C2=O
-1.1,COc1ccc2c3c([nH]c2c1)[C@H](CO)N(C(=O)c1ccccc1)CC31CCN(S(=O)(=O)c2cccs2)CC1
0.8,CC(C)C1C(=O)N(Cc2cn(CCC3OCCO3)nn2)CCS(=O)(=O)N1Cc1ccc(-c2ccccc2Cl)cc1 (centres undefined)

Additional compounds.
AF4-AF9 inh,SMILES
0.3,C[C@@H]1CN([C@H](C)CO)C(=O)c2cc(NC(=O)C3CCCCC3)ccc2O[C@@H](C)CCCCO[C@H]1CN(C)S(=O)(=O)c1ccccc1
5.3,O=C(C[C@H]1CC[C@H]2[C@@H](COC[C@@H](O)CN2C(=O)Nc2ccccc2)O1)NCCCN1CCOCC1
-2.1,CCCNC(=O)C1(C)CCN(C(=O)c2cccc(C(F)(F)F)c2)C1 (centres undefined)
-3.2,O=C(C[C@H]1C[C@H]2c3cc(NC(=O)C4CCC4)ccc3O[C@H]2[C@@H](CO)O1)NCc1ccc(-c2ccccc2)cc1
18,COc1ccc(CN(C)C[C@@H]2OCCCC[C@@H](C)Oc3ccc(NC(=O)Nc4ccc5c(c4)OCO5)cc3C(=O)N([C@@H](C)CO)C[C@H]2C)cc1
-0.3,CC(C)NC(=O)N1[C@H](CO)[C@H]2c3ccccc3N(C)C[C@H]21
-0.7,COc1ccc(-c2ccccc2[C@H]2[C@@H](C#N)N(C(=O)C3CCC3)[C@@H]2CO)cc1
5.2,C[C@H]1CN([C@@H](C)CO)C(=O)Cc2cc(NC(=O)Cn3cnnn3)ccc2O[C@@H]1CN(C)CC1CCCCC1
-8.9,CN1[C@@H]2Cn3c(ccc(/C=C/c4ccccc4)c3=O)[C@H]1[C@@H](C(=O)NC1CCCC1)[C@@H]2CO
-1.2,C/C=C/c1ccc([C@H]2[C@@H](CO)N3C(=O)CN(C(=O)Cc4cccnc4)C[C@@H]23)cc1
0.8,COc1ccc(CN(C)C[C@@H]2Oc3c(NC(=O)c4cc(C)nn4C)cccc3C(=O)N([C@H](C)CO)C[C@H]2C)cc1
-6.6,O=C(C[C@H]1C=C[C@H](NC(=O)C2CCC2)[C@H](CO)O1)NCc1ccccc1Cl
1.2,OC[C@H]1[C@H](c2ccc(-c3cccnc3)cc2)[C@H]2CN(CC3CCOCC3)CCCCN21
-3.3,CCC(=O)N[C@@H]1C=C[C@H](CC(=O)NCC2CC2)O[C@H]1CO
0.2,CCCN(C)C[C@@H]1Oc2cc(C#C[C@H](C)O)ccc2S(=O)(=O)N([C@H](C)CO)C[C@@H]1C
-6.0,CCCC#Cc1ccc2c(c1)O[C@H](CN(C)C(=O)c1ccncc1)[C@@H](C)CN([C@H](C)CO)S2(=O)=O
0.6,CCCNC(=O)N1CC(=O)N2[C@H](CO)[C@@H](c3ccc(-c4ccc(C)cc4)cc3)[C@H]2C1
0.4,CCC(=O)N(C)C[C@@H]1Oc2ncc(/C=C/c3ccccc3)cc2C(=O)N([C@@H](C)CO)C[C@H]1C
0.1,Cn1c(=O)c2c(-c3ccccc3)n(-c3cc([N+](=O)[O-])ccc3N)cc2n(C)c1=O
-2.6,O=C(CC1CC1)N1CC2(C1)[C@H](c1ccccc1)[C@H](CO)N2Cc1ccccn1
0.0,O=C1NC[C@@H](CCCCN2C[C@H](Cc3ccc(O)cc3)N(Cc3ccccc3)C(=O)C2=O)N(Cc2ccccc2)C1=O
-5.8,CCC(=O)NC[C@H]1[C@H](c2ccccc2)[C@H](CO)N1C(=O)C1CC1
0.5,COC(=O)C1=C2CC[C@H](CO)NC(=O)N[C@H](Cc3ccccc3)C(=O)NCc3cn(nn3)C[C@H](Cc3ccccc3)NC(=O)c3oc(c(C(=O)OC)c3C(=O)OC)CC[C@H](CO)NC(=O)N[C@H](Cc3ccccc3)C(=O)NCc3cn(nn3)C[C@H](Cc3ccccc3)NC(=O)C(=C1C(=O)OC)O2
-1.6,CCCNC(=O)C[C@H]1C[C@@H]2c3cc(NC(=O)C4CCC4)ccc3O[C@@H]2[C@@H](CO)O1
-1.8,CC(C)NC(=O)N[C@H]1CC[C@@H](CCNC(=O)C2CC2)O[C@H]1CO

High-throughput results deposited in PubChem by Broad Institute.
